Bioassay records as filed in PubChem BioAssay.
Mtb hypoxia inh = reduces hypoxia-regulated biosensor signal in M. tuberculosis | M. tuberculosis hypoxia-regulated fluorescent reporter, fluorescence | fluorescence inhibition, % (concentration not given with the values) | hit rate 0.1% among 300,000;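 active = 35 to 45% if threefold the growth effect, above 45% if 1.5-fold the growth effect; inactive = the rest, general growth blockers included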;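 also: wells of about 50 µL received 100 nL stock; 0% = vehicle wells and 100% = reference inhibitor wells; whole bacteria with a GFP reporter of the hypoxia response; strong numbers were not always called active; many hits fall short of the cut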
Autofluor counter = compound fluorescence in toxin protease inhibitor counterscreen | hit rate 3.1% among 360,000 | compound autofluorescence counterscreen, microsphere flow cytometry; stronger effect = higher value | AID 624483 | fluorescence intensity (concentration not given with the values);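 active = at least 3 SD above the mean of all compounds, about 16000 in these data; inconclusive = too few beads counted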;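 also: 100 nL of 1 mM stock went into each well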
BJeLR lethal = BJeLR cell viability loss; BJeLR (HRASV12) viability, CellTiter-Glo ATP luminescence, 48 h; reference of the scale not given here; inhibition, % (concentration not given with the values); hit rate 0.17% among 300,000;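 active = replicate mean above 50%; inconclusive = above 50% but judged a plate artefact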;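 also: 50 nL library stock added to about 25 µL; numbers are from one replicate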
Sa ugtP lethal = compounds lethal to S. aureus RN4220 ugtP deletion mutant. OD600 growth, 16 h; some inactives read as strong as hits. growth inhibition, % (concentration not given with the values). hit rate 0.54% among 330,000. AID 1259309;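 active = z-score under -3 and OD600 up to 0.15 on both plates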;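 also: plate controls were untreated wells for no effect and antibiotic for full effect; wells of about 80 µL received 100 nL stock; the first replicate is given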
PrP UTR inh = inhibition of PrP 5' UTR reporter expression; cell-based PrP 5' UTR mRNA reporter, plate reader; inhibition, % (no concentration beside the values); hit rate 0.35% among 340,000; AID 488862;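 active = every replicate at 50% or more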;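 also: 0 = median of the neutral control wells; tested in H4 reporter cells; numbers are from one replicate; inactives centre near -14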
RN4220 kill = kills Staphylococcus aureus RN4220 | hit rate 0.33% among 330,000 | inhibition, % (test concentration not listed) | AID 1259311 | S. aureus RN4220 growth, OD600, 16 h;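 active = z-score of -3 or lower and OD600 up to 0.18 on both plates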;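 also: plate controls were untreated cells for no effect and reference antibiotic for full effect; stock transfer was 100 nL into about 80 µL; one replicate is shown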
Mtb hypoxia inh growth = recorded beside Mtb hypoxia inh, whose call it bears; growth inhibition, %; measured here: M. tuberculosis growth (absorbance);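 0% = vehicle and 100% = reference antibiotic; read after six days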
An asterisk follows results filed as active; ? = inconclusive; nt = no result given. No enrichment for hits; any-hit rate near 4%.

No.	SMILES	Mtb hypoxia inh	Mtb hypoxia inh growth	Autofluor counter	BJeLR lethal	Sa ugtP lethal	PrP UTR inh	RN4220 kill
1	CC(Oc1ccccc1)C(=O)Nc1ccc(F)c(S(=O)(=O)N2CCOCC2)c1 (configuration not stated)	9.2	2.4	nt	nt	-0.5	-9.8	3.0
2	Oc1oc(-c2ccccc2)nc1/C=N/c1ccccn1	nt	nt	3789	8.7	nt	-46.3	nt
3	Cc1ccc(S(=O)(=O)N2CCN(c3ccc(S(=O)(=O)N4CCOCC4)cn3)CC2)cc1	nt	nt	2240	-8.9	-6.7	-0.5	-0.9
4	COCCCn1c(=N)c(C(N)=S)cc2c(=O)n3cccc(C)c3nc21	10.1	9.2	3064	-0.2	7.0	-20.3	2.6
5	COc1ncccc1C(=O)N1CCCC(C(=O)c2cccc(OC(C)C)c2)C1 (configuration not stated)	-2.5	8.9	3911	-30.9	4.3	-25.5	10.7
6	COc1ccc(C(=O)Nc2ccc(NC(=O)c3ccccc3F)cn2)cc1	6.8	0.6	3249	-10.0	4.6	-11.1	7.6
7	Cc1nn(CC(=O)N2CCN(c3ccccc3)CC2)c(C)c1[N+](=O)[O-]	-15.3	-11.3	4601	-15.3	-4.4	2.9	-3.4
8	CC(C)n1cc(CN2CCCC(CO)(Cc3cccc(Cl)c3)C2)cn1 (configuration not stated)	2.9	-4.5	4868	7.4	0.4	-24.0	0.5

(next part)
No.	SMILES	Mtb hypoxia inh	Mtb hypoxia inh growth	Autofluor counter	BJeLR lethal	Sa ugtP lethal	PrP UTR inh	RN4220 kill
9	CCN(CC)C(=O)CCCc1c[nH]c2ccccc12	-0.3	1.5	4137	9.4	-1.0	-5.8	2.7
10	CCOC(=O)c1ccc(NC(=O)c2ccc3c(c2)C(=O)N(Cc2cccnc2)C3=O)cc1	7.3	8.3	4975	-1.9	5.0	-12.4	0.6
11	CCOC(=O)c1cnc2ccc(C)cc2c1N(C)Cc1ccccc1	1.0	-1.5	3303	5.6	26.0	nt	1.1
12	Cn1c(=O)c2c(nc(OCc3ccc4c(c3)OCO4)n2Cc2ccccc2Cl)n(C)c1=O	nt	nt	4204	-1.7	-3.0	-40.5	0.3
13	Cc1ccccc1C=Nn1c(C2CCCCC2)n[nH]c1=S	5.4	0.8	nt	nt	-1.0	nt	4.8
14	Cc1ccc(N2CC(C(=O)NCc3cccs3)CC2=O)cc1 (configuration not stated)	4.1	-0.6	nt	2.8	-0.2	-8.9	1.7
15	Cc1nn(C)c(C(=O)NNC(=S)NCc2ccccc2)c1Cl	10.0	7.9	4371	-13.1	7.4	-9.2	8.1
16	OCC(CO)(CO)N=Cc1cc(Br)ccc1O	8.5	-3.4	11505	-6.5	9.5	-12.4	2.0

Continued.
No.	SMILES	Mtb hypoxia inh	Mtb hypoxia inh growth	Autofluor counter	BJeLR lethal	Sa ugtP lethal	PrP UTR inh	RN4220 kill
17	O=C(C1CCC(=O)N(C2CCCC2)C1)N1CCC(Oc2cccc(F)c2)CC1 (configuration not stated)	2.2	7.1	5918	1.5	9.2	9.2	2.1
18	COc1ccc(-n2nc3cc(C)c(NC(=S)NC(=O)c4ccccc4C)cc3n2)cc1	2.4	-0.8	11776	3.4	26.8	-41.7	3.4
19	CCn1c(SCC(=O)n2nc(C)cc2C)nnc1-c1ccc2c(c1)OCO2	-7.3	-6.9	10257	-9.9	-3.8	-32.0	-0.3
20	Cc1ccc(NC(=S)NCc2ccc3c(c2)OCO3)cc1	12.1	8.3	2622	-8.2	24.4	-16.3	2.5
21	COc1cc2c(cc1OC)CN(C(=O)C1CCC(=O)N(CCCN3CCOCC3)C1)CC2 (configuration not stated)	0.5	-5.6	4499	-3.3	7.8	-7.5	5.0
22	Cc1ccc(NC(=O)c2cccc(C(=O)Nc3ccc(C)c(C)c3)n2)cc1C	4.4	-7.3	5525	-8.3	10.8	0.9	-1.3
23	COC(=O)C1=C(c2c(C)noc2C)CC2CCC1N2C(=O)NC1CCCCC1 (configuration not stated)	7.2	7.6	nt	nt	-7.1	nt	3.8
24	CCOc1ccc2nc3sc(C(=O)N4CCOCC4)c(N)c3cc2c1	11.3	8.0	4394	-13.1	6.6	2.2	14.5

Remaining list, next part:
No.	SMILES	Mtb hypoxia inh	Mtb hypoxia inh growth	Autofluor counter	BJeLR lethal	Sa ugtP lethal	PrP UTR inh	RN4220 kill
25	C=CCc1ccc(OCCOCCOc2cccc3cccnc23)c(OC)c1	6.3	14.0	1931	2.5	-6.3	-73.6	3.3
26	COc1ccc(N2CCN(C(=O)Cc3ccc(Cl)cc3)CC2)cc1	4.0	18.5	5126	2.4	4.4	0.7	-5.0
27	CCC1COCCS(=O)(=O)N1Cc1cccc(Cl)c1 (configuration not stated)	0.5	4.0	3488	-3.4	1.7	-16.1	0.3
28	Cc1ccc(S(=O)(=O)CC(=O)c2cc3cccc(C)c3oc2=O)cc1	-14.3	4.9	5412	-4.2	-4.4	-3.9	-0.9
29	COc1ccc(-c2csc(-n3ncc(C(=O)O)c3C(F)(F)F)n2)cc1	-20.7	-1.5	4009	1.2	14.6	-21.1	4.6
30	O=C(CSCc1c(Cl)cccc1Cl)Nc1ccccc1C(=O)N1CCOCC1	-2.7	9.6	2892	4.9	-1.6	-14.6	-0.7
31	COc1ccccc1NC(=O)N1CCn2c(nc3ccccc32)C1	12.5	15.5	10462	-3.0	4.8	nt	5.0
32	CC(=O)NCCC(=O)N1CCCC(CNC(=O)c2ccc(-c3ccccc3)cc2)C1 (configuration not stated)	0.2	7.8	2561	3.6	3.1	-22.7	0.4

Continued.
No.	SMILES	Mtb hypoxia inh	Mtb hypoxia inh growth	Autofluor counter	BJeLR lethal	Sa ugtP lethal	PrP UTR inh	RN4220 kill
33	Cc1ccsc1/C=c1\sc2ncnn2c1=O	nt	nt	20527*	-13.1	nt	-25.6	nt
34	O=C(COC(=O)/C=C/c1ccc(Cl)c(Cl)c1)NC1CC1	-4.4	3.4	?	nt	4.1	-4.4	4.9
35	Cc1cc(C)nc(SCc2ccc(Cl)cc2)n1	1.3	-2.5	3562	-7.2	6.5	-11.2	2.5
36	NC(=O)NC(=O)C(OC(=O)CCNS(=O)(=O)c1ccccc1)c1ccccc1 (configuration not stated)	0.2	2.0	4924	2.9	6.3	-5.8	3.4
37	O=C(N/N=C/c1ccco1)C(O)c1ccccc1 (configuration not stated)	nt	nt	5992	3.4	nt	-12.8	nt
38	COC(=O)C1C(=O)c2c(C)noc2CC1(C)C (configuration not stated)	3.8	5.9	5136	-3.5	6.7	-19.9	1.3
39	O=C(c1cccc(Oc2c(Cl)cccc2[N+](=O)[O-])c1)N1CCOCC1	8.4	6.4	5481	7.1	0.0	-3.2	2.2
40	O=C(NC(=S)Nc1ccc(CN2CCOCC2)cc1)c1ccc(-c2ccc(Br)cc2)o1	3.5	1.2	nt	-5.3	19.5	nt	0.8

The list goes on:
No.	SMILES	Mtb hypoxia inh	Mtb hypoxia inh growth	Autofluor counter	BJeLR lethal	Sa ugtP lethal	PrP UTR inh	RN4220 kill
41	COc1cccc(NC(=S)Nc2cc(C(=O)O)ccc2N2CC3CC(C2)c2cccc(=O)n2C3)c1 (configuration not stated)	3.1	4.6	4497	-8.1	-0.2	-5.8	3.9
42	COC(=O)CNC(=O)CSc1nc(N)cc(=O)[nH]1	6.7	11.7	10529	11.8	-2.1	-26.6	7.5
43	NC1=NC(=O)C(Cc2cc(Cl)ccc2Cl)S1 (configuration not stated)	10.3	11.1	8006	-14.0	-0.9	-10.1	0.7
44	COC(=O)[C@H](C)N1C/C=C\COc2c(Cl)cc(Cl)cc2S1(=O)=O	5.0	6.6	3553	nt	-0.8	-14.5	5.9
45	NC(=O)C1CC(=O)N(c2ccc(OCc3c(Cl)cccc3Cl)cc2)C1 (configuration not stated)	2.6	-8.8	2505	0.9	1.0	-15.2	4.4
46	CCOC(=O)c1c(NC(C)=O)no[n+]1[O-]	4.0	2.1	3049	-0.4	3.8	-6.4	4.6
47	COc1ccc(OCC(Cn2cnc3ccccc32)OC(C)=O)cc1 (configuration not stated)	7.7	10.7	4180	-5.1	8.1	-33.5	3.0
48	Cc1cc(C)nc(SCC(=O)Nc2ccnc3ccccc23)n1	-5.4	10.3	3902	22.5	-5.8	-42.8	-0.9

Continuation.
No.	SMILES	Mtb hypoxia inh	Mtb hypoxia inh growth	Autofluor counter	BJeLR lethal	Sa ugtP lethal	PrP UTR inh	RN4220 kill
49	CCC(=O)N1CCN(c2nc(C)nc3sc(C)c(C)c23)CC1	1.7	6.0	7581	-1.8	1.2	-14.6	4.0
50	CC1CN(S(=O)(=O)c2cccc(C(F)(F)F)c2)C(C)N1C(=O)N1CCOCC1 (configuration not stated)	-5.7	0.2	4167	2.3	5.9	-21.7	1.5
51	C=CC[C@]12C=C(OC)C(=O)C(OC)=C1O[C@@H](c1ccc3c(c1)OCO3)[C@H]2C	nt	nt	4316	-9.5	-7.2	3.9	5.0
52	O=C(Cc1ccc(NC2=NC3CS(=O)(=O)CC3S2)cc1)NCc1ccc(Cl)cc1 (configuration not stated)	6.1	5.7	5935	-3.5	-1.5	-26.1	-12.2
53	CN(C)C(CNC(=O)c1cccc(C(F)(F)F)c1)c1ccco1 (configuration not stated)	4.0	-0.3	4400	0.8	4.7	-22.4	1.8
54	CC1CCN(C(=O)COC(=O)c2cc3ccccc3oc2=O)CC1	-8.4	-9.6	3616	nt	-3.6	-2.6	5.0
55	CCOC(=O)CCCNC(=O)COC(=O)c1cc(C)cc(C)c1	nt	nt	3605	-0.1	5.8	2.3	-4.2
56	C=CCSc1nccc(-c2nn(-c3ccc(C)cc3)ccc2=O)n1	nt	nt	2203	43.6	-6.5	-26.4	7.1

(next part)
No.	SMILES	Mtb hypoxia inh	Mtb hypoxia inh growth	Autofluor counter	BJeLR lethal	Sa ugtP lethal	PrP UTR inh	RN4220 kill
57	Cc1ccc(S(N)(=O)=O)c(C)c1-n1cnnn1	-5.7	-0.5	3999	-4.9	-1.2	-18.5	6.5
58	CC(C)(C)n1nnnc1C(c1ccncc1)N(Cc1ccccc1)Cc1ccco1 (configuration not stated)	nt	nt	2810	-1.0	-1.7	-10.5	3.0
59	CCCCNC1=C(Br)C(=O)CC(C)(C)C1	nt	nt	2077	8.0	7.6	-2.0	5.8
60	CCCC(=O)NCCc1nc2cc([N+](=O)[O-])ccc2n1C	9.1	0.9	2530	2.7	4.1	4.6	3.3
61	COc1ccccc1-n1cc(CN2CCCC(CO)(Cc3cccc(Cl)c3)C2)cn1 (configuration not stated)	4.8	-0.7	5237	-6.3	-1.3	-16.7	3.1
62	CC(=O)N1C(=O)/C(=C2\SC(=S)N(NC(=O)c3ccc(O)cc3)C2=O)c2ccccc21	3.7	0.4	2385	-5.9	9.5	-17.2	13.8
63	Cc1ccc(/C=N/n2c(C3CCCCC3)n[nH]c2=S)s1	nt	nt	2013	2.1	nt	-2.5	nt
64	CC(=O)Nc1ccc(S(=O)(=O)NCCC(=O)N2CCc3ccccc32)cc1	1.6	3.4	5800	1.0	9.8	-14.2	-0.8

(listing goes on)
No.	SMILES	Mtb hypoxia inh	Mtb hypoxia inh growth	Autofluor counter	BJeLR lethal	Sa ugtP lethal	PrP UTR inh	RN4220 kill
65	Cc1cnc(C(=O)OCC(=O)Nc2cc(-c3cc(C)c(C)cc3C)nn2-c2ccccc2)cn1	-0.9	6.4	6156	-9.7	4.1	-2.6	-5.1
66	CC1(c2ccccc2)NC(=O)N(CC(=O)NNC(=O)c2cccc(Cl)c2)C1=O (configuration not stated)	-3.8	9.9	5224	nt	-2.3	nt	0.7
67	Cc1cc(NC(=O)c2ccc(F)c(S(=O)(=O)N3CCCCC3)c2)no1	14.8	9.2	5880	-2.2	3.2	-4.8	2.2
68	COc1ccc(S(=O)(=O)N2CCC3(CC2)OCCN3S(=O)(=O)c2ccc(C)cc2)cc1OC	-3.4	-3.9	?	2.6	-2.4	-9.5	-7.1

Reformatted: entries from further up.
66	CC1(c2ccccc2)NC(=O)N(CC(=O)NNC(=O)c2cccc(Cl)c2)C1=O (configuration not stated)
67	Cc1cc(NC(=O)c2ccc(F)c(S(=O)(=O)N3CCCCC3)c2)no1
assay / compound	66	67
Mtb hypoxia inh	-3.8	14.8
Mtb hypoxia inh growth	9.9	9.2
Autofluor counter	5224	5880
BJeLR lethal	nt	-2.2
Sa ugtP lethal	-2.3	3.2
PrP UTR inh	nt	-4.8
RN4220 kill	0.7	2.2
